# Screening data as filed in PubChem BioAssay.
# LANA-H2A inh – blocks KSHV LANA binding to histone H2A/H2B. cell-free LANA-H2A/H2B peptide, fluorescence polarization. 320,000 tested, 0.6% active. Q9QR71. inhibition, % (test concentration not listed); in the data active = inhibition mostly above about 10%, no sharp cut-off; inactive = mostly below about 6.7%;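 note: stock transfer was 7.5 nL into about 10 µL; 0% = median of vehicle wells and 100% = median of positive control wells; one replicate is shown; the record names a cut of 25% in any replicate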
# HNF4A DNA FP – change in binding of human HNF4 alpha to DNA; HNF4a-FITC DNA binding, fluorescence polarization, 1 h; 360,000 tested, 0.3% active; activity change, % at 10 µM; P41235; in the data active = activity change above about 30%, passing the limit was not always enough;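 note: controls were the assay level and a saturating level of protein; the project sought stronger binding though the title names inhibitors; some compounds called inactive have numbers as strong as hits; positive values seem to mean higher polarization but the record does not say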
# Target sequence (P41235 whole entry, looked up): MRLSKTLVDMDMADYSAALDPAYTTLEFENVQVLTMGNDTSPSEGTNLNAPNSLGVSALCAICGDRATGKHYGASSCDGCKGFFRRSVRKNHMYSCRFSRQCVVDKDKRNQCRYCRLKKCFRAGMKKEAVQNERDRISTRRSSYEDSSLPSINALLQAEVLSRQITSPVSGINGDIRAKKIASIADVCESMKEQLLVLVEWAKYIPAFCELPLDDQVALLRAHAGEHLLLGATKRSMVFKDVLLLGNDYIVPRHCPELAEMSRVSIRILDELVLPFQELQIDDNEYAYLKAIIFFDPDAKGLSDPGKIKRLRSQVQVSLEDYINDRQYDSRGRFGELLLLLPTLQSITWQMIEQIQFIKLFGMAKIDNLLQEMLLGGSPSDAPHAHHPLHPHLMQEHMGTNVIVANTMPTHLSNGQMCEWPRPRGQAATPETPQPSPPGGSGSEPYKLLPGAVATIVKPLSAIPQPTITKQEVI
# Ecoli growth – blocks Escherichia coli growth | OD600, 23 h; hits give low values | 330,000 tested, 0.21% active | OD600 absorbance (concentration not given with the values) | AID 1053175;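 active = OD600 absorbance below the run mean of sample wells minus 3.6 SD, in any replicate, cut at about 0.56 in these data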;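 note: stock transfer was 300 nL into about 60 µL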
# Beta2AR agonist – agonists of human beta-2 adrenergic receptor inducing internalization. Am2.2-beta2AR cells, FAP receptor internalization, flow cytometry; reference of the scale not given here. response, % (concentration not given with the values). 340,000 tested, 0.43% active. AID 504454;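 active = response above a set limit, near 3 SD of response in nonfluorescent compounds, cut at about 42% in these data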;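 note: stock transfer was 100 nL into about 11 µL; a reference agonist was the positive control; negative values mostly stem from fluorescent compounds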
# Target sequence (P07550 whole entry, looked up): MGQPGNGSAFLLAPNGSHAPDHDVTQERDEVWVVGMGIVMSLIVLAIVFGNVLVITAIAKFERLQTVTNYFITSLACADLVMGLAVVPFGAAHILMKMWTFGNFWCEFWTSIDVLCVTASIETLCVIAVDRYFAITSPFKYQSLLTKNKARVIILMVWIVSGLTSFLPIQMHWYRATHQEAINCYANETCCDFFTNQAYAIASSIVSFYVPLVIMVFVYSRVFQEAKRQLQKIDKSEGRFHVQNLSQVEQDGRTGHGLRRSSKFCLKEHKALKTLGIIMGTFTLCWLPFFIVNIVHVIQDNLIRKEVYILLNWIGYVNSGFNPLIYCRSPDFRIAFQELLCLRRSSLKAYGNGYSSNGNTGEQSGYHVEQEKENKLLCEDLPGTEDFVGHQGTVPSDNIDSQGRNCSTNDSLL
# FGF22 binding – FGF22 (human) thermal shift binding | 340,000 tested, 1.5% active | recombinant FGF22 thermal shift, SYPRO orange fluorescence; percent of sucrose octasulfate shift, DMSO zero | Q9HCT0 | AID 651658 | calls only at 9.99 µM;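 active = melting point raised past a set limit in the mean and every replicate; three in four hits are not shown here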
# Target sequence (Q9HCT0 whole entry, looked up): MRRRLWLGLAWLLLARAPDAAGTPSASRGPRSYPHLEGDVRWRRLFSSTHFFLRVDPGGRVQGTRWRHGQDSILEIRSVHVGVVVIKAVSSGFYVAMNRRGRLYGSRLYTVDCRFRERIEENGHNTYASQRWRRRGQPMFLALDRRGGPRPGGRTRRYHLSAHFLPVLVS
# UCH37 DUB inh – human UCH37 deubiquitinating enzyme inhibition. inhibition, % (no concentration beside the values). purified proteasome/UCH37, Ub-AMC cleavage fluorescence. AID 588478. 330,000 tested, 0.33% active;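 active = mean of two replicates above 20%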;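 note: 0% = compound-free wells with enzyme and 100% = wells lacking proteasome; stock transfer was 100 nL into about 20 µL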
#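 Material: human UCH37 enzyme supplied as purified proteasome complex / Amount: 0.15 nM proteasome as dispensed / Buffer or medium: pH 7.4 Tris-HCl (50 mM) with ovalbumin, ATP-MgCl2, DTT / Times: preincubation 30 min, reaction 25 min, room temperature / Technique: AMC fluorescence from Ub-AMC cleavage, excitation 355 nm, emission 460 nm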
# ALR inh – human ALR oxidase inhibition via reduced H2O2; P55789; purified ALR, DTT oxidation, H2O2 HRP-luminol luminescence; inhibition, % (no concentration beside the values); 290,000 tested, 3.8% active;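 active = mean and each replicate at 75% or more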;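 note: stock transfer was 7.5 nL into about 7.5 µL; 0% = neutral wells and 100% = wells with inactivated enzyme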
# * marks the source's active call; other numbers are inactive results; i = inactive; nt = no result given.
LANA-H2A inh,HNF4A DNA FP,Ecoli growth,ALR inh,FGF22 binding,UCH37 DUB inh,Beta2AR agonist,SMILES
-1.7,3.0,0.64,-8,nt,0.3,0,Cc1ccc(C(=O)N/C(=C\c2cccs2)C(=O)NCCc2c[nH]c3ccccc23)cc1
5.4,-1.2,0.75,-5,nt,-1.3,-3,CCOC(=O)CNC(=O)CN1C(=O)CCS(=O)(=O)c2ccccc21
3.6,4.3,0.75,-2,i,2.5,1,CCOc1ccc(OCCN2C(=O)c3ccccc3C2=O)cc1
3.1,5.0,0.67,-4,i,-1.4,-9,Cc1ccc(NS(=O)(=O)c2ccc(C(=O)N3CCN(c4ncccn4)CC3)cc2)cc1
0.8,-3.8,0.69,7,nt,1.9,3,O=C(O)C1CC1C(=O)N1CCN(c2ccc(Cl)c(Cl)c2)CC1 (centres undefined)
4.2,69*,nt,-11,nt,nt,7,Cn1cccc1/C=C1\SC(=S)N(NC(=O)c2ccccc2Cl)C1=O
0.6,-1.4,0.66,54,nt,-1.5,-5,CCOC(=O)CC(=O)CSc1nc2nc(C)cc(C)n2n1
-5.9,3.2,0.75,-1,i,7.8,-6,CCOc1ccc(NC(=S)N(CCc2c(C)[nH]c3ccc(C)cc23)Cc2ccco2)cc1
3.5,-1.5,0.73,-28,nt,-0.1,-3,O=C1NC2(CCCCC2)N=C1c1ccc(Br)cc1
-2.8,0.8,0.69,-1,i,-26,6,Cc1cccc(NS(=O)(=O)c2ccc(C(C)(C)C)cc2)n1
-4.4,-1.2,0.71,-30,i,1.9,-6,CC(=O)NC(Cc1cc(C)ccc1C)C(=O)N1CCN(C(=O)c2ccc([N+](=O)[O-])cc2)CC1 (centres undefined)
-0.1,5.9,0.67,-5,i,-12,13,COC(=O)c1sc(-c2cccs2)cc1N
-1.5,-0.4,0.69,-3,nt,2.2,-3,O=C(CCc1ccccc1)NNC(=O)Cc1ccc(Cl)cc1
7.7,2.6,0.68,1,i,1.0,-12,CCN1CCN(CCNC(=O)Nc2ccc([N+](=O)[O-])cc2)CC1
4.1,2.9,0.6,-4,i,9.7,7,O=C(Nc1ccc([N+](=O)[O-])cc1)Nn1cnnc1
1.2,13,0.68,90*,i,4.9,11,COc1cc(/C=C2\SC(N3CCC(C)CC3)=NC2=O)ccc1O
-1.8,0.8,0.65,-6,i,6.4,7,COCC(=O)NNC(=O)Cc1ccc(Cl)cc1
-4.5,-5.1,0.67,nt,i,3.9,-5,Nc1ccc(-n2nc(C(F)(F)F)cc2C(F)(F)F)cc1
-3.3,1.0,0.68,1,nt,0.6,-9,Nc1c(Sc2ccccc2)c(=O)[nH]c(=O)n1Cc1ccccc1
-3.6,2.6,0.64,-32,nt,32*,0,CC(C)CC[n+]1ccn(C2=C([O-])c3ccccc3C(=O)/C2=N\S(=O)(=O)c2ccccc2)c1

# An excerpt from above, reduced to FGF22 binding and HNF4A DNA FP.
mol | FGF22 binding | HNF4A DNA FP
COC(=O)c1sc(-c2cccs2)cc1N | i | 5.9
O=C1NC2(CCCCC2)N=C1c1ccc(Br)cc1 | nt | -1.5
CCOc1ccc(OCCN2C(=O)c3ccccc3C2=O)cc1 | i | 4.3
Cc1cccc(NS(=O)(=O)c2ccc(C(C)(C)C)cc2)n1 | i | 0.8
CC(=O)NC(Cc1cc(C)ccc1C)C(=O)N1CCN(C(=O)c2ccc([N+](=O)[O-])cc2)CC1 (centres undefined) | i | -1.2
O=C(O)C1CC1C(=O)N1CCN(c2ccc(Cl)c(Cl)c2)CC1 (centres undefined) | nt | -3.8
Nc1c(Sc2ccccc2)c(=O)[nH]c(=O)n1Cc1ccccc1 | nt | 1.0

# More structures:
LANA-H2A inh,HNF4A DNA FP,Ecoli growth,ALR inh,FGF22 binding,UCH37 DUB inh,Beta2AR agonist,SMILES
-0.2,6.7,0.66,nt,i,-6.0,-15,COc1ccc(-n2cc(CNCc3cnc4ccccn34)c(-c3cccc(F)c3)n2)cc1
3.8,-3.1,0.68,-8,i,-1.6,13,CC1CC1C(=O)N(C)CC(=O)Nc1ccccc1Br (centres undefined)
0.9,0.2,0.64,1,nt,-0.2,14,CC(C)NC(=O)c1cnc(Sc2ncc(C(F)(F)F)cc2Cl)n1C
-1.2,-1.7,0.61,0,nt,1.2,-1,N#CC1=C(N)C(C#N)(C#N)C2(CCC3(CC2)OCCO3)C2CC3(CC=C12)OCCO3 (centres undefined)
2.9,1.5,0.69,-3,nt,0.3,2,CCc1nnc(SCC(=O)Nc2ccc3c(c2)OCO3)o1
4.9,1.4,0.67,3,nt,1.2,0,CCc1ccc(/C=C/C(=O)c2ccc(N3CCOCC3)cc2)cc1
1.5,-4.6,0.62,28,i,4.8,63*,Cc1ccc(C(=O)/C=C/c2ccccc2[N+](=O)[O-])cc1
6.2,-1.7,0.67,-2,i,-0.3,-2,COc1ccc(C(=O)NNC(=O)CN2CCC(n3nnc4cc(C(F)(F)F)ccc43)CC2)cc1
2.8,-3.2,0.66,1,nt,-3.1,-1,CCn1c(SCc2ccccc2)nnc1C1CCCCC1
-1.1,-1.2,0.71,16,i,3.8,5,COC(Cn1c(-c2cccc(S(=O)(=O)N(C)C)c2)n[nH]c1=S)OC
-0.6,1.0,0.72,-12,i,-1.3,-2,Cc1cccc(C(=O)OCC(=O)c2ccc3c(c2)OCCO3)c1O
6.7,0.3,0.69,nt,i,4.3,-12,CCCCN(C(=O)CSc1ncnc2sccc12)c1c(N)n(Cc2ccccc2)c(=O)[nH]c1=O
1.2,-3.0,0.69,-2,nt,-0.3,1,O=C(O)c1ccc(Cl)cc1NC(=O)C1CCCO1 (centres undefined)
-9.5,0.4,0.75,nt,nt,0.6,-3,COC(=O)c1cc(NC(=O)c2c(Cl)nc3sccn23)cc(C(=O)OC)c1
-9.6,-2.1,0.75,-12,nt,6.1,3,CCCc1cc(=O)[nH]c(SCCOc2ccc(OCC)cc2)n1
nt,3.1,nt,nt,nt,0.7,5,O=C(O)c1ccccc1-c1ccccc1C(=O)NNc1ccccc1
-4.0,0.3,0.7,-5,nt,-5.4,15,Cc1ccc(S(=O)(=O)Nc2cc(-c3nn(C)c(=O)c4ccccc34)ccc2N2CCOCC2)cc1
0.0,2.0,0.71,-9,i,6.3,4,Cc1ccc(S(=O)(=O)NCCC(=O)OCC(=O)NC(=O)c2cccn2C)cc1
-0.2,-5.7,0.67,1,nt,0.3,3,CC1CCCCN1C(=O)CSc1nnc(CSc2ncccn2)n1C (centres undefined)
2.0,2.0,0.65,1,i,6.4,-2,Cc1ccc(OCc2nnc(SCC(=O)Nc3ncc(C)s3)o2)cc1
-2.3,0.9,0.7,-2,i,-3.8,3,COc1ccccc1/C=C/CN1CCCC(CO)(CCc2ccccc2)C1 (centres undefined)
1.4,-3.0,0.74,7,nt,-0.9,-2,CC(C)C(c1nnnn1Cc1cccs1)N1CCN(C2CCCC2)CC1 (centres undefined)
4.2,-1.5,0.68,-1,i,1.7,0,Cc1ccc(SCCN2CCC(C(C)(C)C)CCC2=O)cc1 (centres undefined)
4.4,3.4,0.67,3,nt,5.1,-5,Nc1c(-c2ccc(Cl)cc2)cnc2ncnn12
-0.5,-2.2,0.72,2,i,-18,6,Cc1ccc(S(=O)(=O)Oc2ccc(/C=C3/N=C(c4ccccc4)OC3=O)cc2)cc1
0.6,-1.4,0.67,1,nt,0.1,3,CC(C)OP(=O)(OC(C)C)C(O)c1ccc2c(c1)OCO2 (centres undefined)
2.2,-2.2,0.64,-1,i,2.1,-4,CCN1CCN(C(c2ccccc2)c2nnnn2Cc2ccc(OC)cc2)CC1 (centres undefined)
-1.5,-26,0.7,4,nt,6.5,0,Cc1ccc(C)n1/N=C1/NC(=O)CS1
5.7,5.5,0.67,0,i,1.5,-4,CCOC(=O)c1c(C)[nH]c(C)c1S(=O)(=O)N(C)CC(=O)Nc1ccccc1OC
5.9,-1.8,0.67,-30,nt,2.7,-7,CCOc1ccc(OCCN2C(=O)NC(Cc3c[nH]c4ccccc34)C2=O)cc1 (centres undefined)
0.1,1.3,0.67,-3,i,3.2,-9,CN(C(=O)CSc1nnc(-c2ccc(OC(F)F)cc2)n1N)C1CCS(=O)(=O)C1 (centres undefined)
-2.3,-0.6,0.69,-5,i,1.7,3,COc1ccc(NC(=O)CN(C)S(=O)(=O)c2cnc[nH]2)cc1OC
-0.3,0.8,0.68,2,nt,-1.1,-5,O=C(NCCCn1ccnc1)C1CC2CCC1C2 (centres undefined)
-3.8,-1.8,0.7,-2,i,3.7,-3,Cc1ccccc1C(=O)OCC(=O)NCc1ccco1
-3.7,0.0,nt,0,nt,nt,-15,CC(C)NC(=O)c1ccccc1NC(=O)/C=C/c1cccc([N+](=O)[O-])c1
3.7,-5.8,0.72,-5,i,3.2,-6,Cc1onc(-c2ccccc2)c1-c1ccnn1C(=O)NC(C)C
1.2,0.3,0.73,-11,nt,21*,4,CCOC(=O)/C(C#N)=C1/C=CN(c2ccccc2)C=N1
2.2,-2.7,0.81,-2,i,-43,-14,CCOC(OCC)c1cn(Cc2ccc(C(=O)c3ccccc3)cc2)nn1
2.4,2.8,0.68,0,i,1.0,12,CC(NC(=O)CNC(=O)C1O[C@@H]2OC(C)(C)O[C@@H]2[C@H]2OC(C)(C)O[C@@H]12)C(=O)O (some centres undefined)
-0.2,5.9,0.68,7,i,3.1,-1,CN(Cc1ccccc1)S(=O)(=O)c1ccc(NC(=O)c2ccccc2C(=O)O)cc1
9.7,-1.7,nt,1,nt,nt,-2,Cc1ccc(CN2CCN(/N=C/c3ccc(C(=O)O)cc3)CC2)cc1
-2.6,-2.5,nt,-23,i,nt,-17,C/C(=N\NC(=O)Cc1ccccc1Cl)c1cccnc1
-0.1,-0.8,0.71,nt,nt,5.2,2,CCCn1nc(C(=O)OCC(=O)c2ccc3c(c2)NC(=O)CO3)c2ccccc2c1=O
0.3,0.5,0.79,0,nt,0.9,1,CCC(=O)Nc1nnc(SCc2ccc(F)cc2)s1
0.9,-1.5,0.66,2,i,2.5,-2,COc1cccc(N(CC(=O)NC2CC3CCC2C3)S(=O)(=O)c2ccccc2)c1 (centres undefined)
-1.2,5.4,0.65,0,i,0.7,-8,NC(=O)c1nc(C(=O)N2CCCCC2)c2ccccc2n1
1.3,5.8,0.64,12,nt,1.5,4,CNC(=S)NNC(=O)Cc1ccccc1
-3.6,0.3,0.67,-3,i,2.1,6,CSc1cccc(NC(=S)N2CCC(N(C)C3CCCCC3C)CC2)c1 (centres undefined)
-6.1,8.3,0.66,-9,nt,4.4,16,O=C(CN1C(=O)C(=O)N(CCC2=CCCCC2)C1=O)c1c[nH]c2ccccc12
3.9,-4.1,0.74,-4,i,1.4,-1,Cc1ccc(S(=O)(=O)N(C)c2c(C)ccc(S(=O)(=O)N3CCN(C=O)CC3)c2C)cc1
-3.0,0.4,0.68,-14,i,1.7,-6,O=C(OCc1c(-c2ccccc2)ncc2ccccc12)c1ccc(Br)cc1
0.6,-6.1,0.76,-1,i,-6.0,13,O=C(c1ccc(Br)o1)N1CCN(c2ccc3nnc(-c4ccc(F)cc4)n3n2)CC1
3.7,-0.6,0.71,-3,i,4.6,6,CCN(CC(=O)NCc1ccc(Cl)cc1)CC(=O)Nc1ccc(C(N)=O)cc1
0.1,3.7,0.64,1,i,0.2,0,CCS(=O)(=O)N1Cc2ccccc2CC1C(=O)OCC(=O)N(C(C)C)C(C)C (centres undefined)
0.3,1.2,0.72,1,i,-41,8,CCCCc1cc(=O)oc2cc(C)cc(OCC(=O)N3C[C@H]4C[C@@H](C3)c3cccc(=O)n3C4)c12

# Compound profiles (already shown).
# Cc1ccc(CN2CCN(/N=C/c3ccc(C(=O)O)cc3)CC2)cc1 across the screens: LANA-H2A inh: 9.7; HNF4A DNA FP: -1.7; Ecoli growth: nt; ALR inh: 1; FGF22 binding: nt; UCH37 DUB inh: nt; Beta2AR agonist: -2
# O=C(c1ccc(Br)o1)N1CCN(c2ccc3nnc(-c4ccc(F)cc4)n3n2)CC1 across the screens: LANA-H2A inh: 0.6; HNF4A DNA FP: -6.1; Ecoli growth: 0.76; ALR inh: -1; FGF22 binding: i; UCH37 DUB inh: -6.0; Beta2AR agonist: 13

# These rows are one share of the data; the hit share may differ from the screen's.
